T cruzi repl = blocks replication of Trypanosoma cruzi | 300,000 compounds, 1.4% hits | T. cruzi beta-gal in NIH3T3, luminescence, 90 h | inhibition, % (test concentration not listed);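 active = mean inhibition across valid replicates above about 55%, limit read from the data; inconclusive = mean below that limit but half or more replicates reach it; inactive = mean below it, under half of replicates reach it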;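 note: signal also drops with host cell toxicity which is not excluded here; 0% = plate median of DMSO wells and 100% = zero luminescence signal; higher percent means less beta-gal luminescence so fewer parasites; stock transfer was 50 nL into about 50 µL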
Beta2AR agonist = human beta-2 adrenergic receptor agonism by FAP. P07550. Am2.2-beta2AR cells, FAP receptor internalization, flow cytometry; reference of the scale not given here. response, % (no concentration beside the values). 340,000 compounds, 0.43% hits. AID 504454;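 active = response above a set limit, near 3 SD of response in nonfluorescent compounds, cut at about 42% in these data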;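 note: stock transfer was 100 nL into about 11 µL; a reference agonist was the positive control; negative values mostly stem from fluorescent compounds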
Target sequence (P07550 whole entry, looked up): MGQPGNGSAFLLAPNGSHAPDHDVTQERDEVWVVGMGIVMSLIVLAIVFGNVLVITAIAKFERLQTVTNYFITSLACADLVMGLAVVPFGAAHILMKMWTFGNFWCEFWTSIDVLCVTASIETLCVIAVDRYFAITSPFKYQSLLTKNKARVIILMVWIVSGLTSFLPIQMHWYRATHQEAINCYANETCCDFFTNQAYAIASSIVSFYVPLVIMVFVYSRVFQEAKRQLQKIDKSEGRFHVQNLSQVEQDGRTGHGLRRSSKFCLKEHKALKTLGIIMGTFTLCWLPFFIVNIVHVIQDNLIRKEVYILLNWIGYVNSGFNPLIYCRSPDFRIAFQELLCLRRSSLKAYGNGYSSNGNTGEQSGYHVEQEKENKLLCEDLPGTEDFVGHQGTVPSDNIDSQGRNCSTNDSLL
RanGTP-Imp inh = inhibitors of RanGTP-importin-beta interaction, primary screen, biochemical, FRET, CFP-Ran, YFP-importin-beta, homogeneous; cell-free CFP-Ran/YFP-importin-beta FRET ratio; inhibition, % (test concentration not listed); 300,000 compounds, 1.1% hits; AID 2216;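 active = most replicates above 15%; inconclusive = exactly half above 15%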;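 note: 0% = DMSO wells and 100% = Ran loaded with GDP instead of GTP; wells of about 40 µL received 100 nL stock; the first replicate is given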
LANA-H2B inh = blocks KSHV LANA binding to histone H2A/H2B; Q9QR71; cell-free LANA-H2A/H2B peptide, fluorescence polarization; inhibition, % (test concentration not listed); 320,000 compounds, 0.6% hits; in the data active = inhibition mostly above about 10%, no sharp cut-off; inactive = mostly below about 6.7%;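 note: stock transfer was 7.5 nL into about 10 µL; 0% = median of vehicle wells and 100% = median of positive control wells; one replicate is shown; the record names a cut of 25% in any replicate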
Beta cell apopt = blocks beta cell apoptosis | INS-1E cytokine-induced death, ATP luminescence, 48 h; percent of positive-control rescue, neutral wells zero | protection from apoptosis, % (no concentration beside the values) | 300,000 compounds, 0.8% hits | AID 435005;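 active = all replicates at 75% or more, or half of them and the mean; inconclusive = half reach 75% but not the mean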;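 note: 0% = cytokine-treated negative control wells and 100% = positive control rescue; higher means more ATP so stronger rescue from cytokine killing; wells of about 40 µL received 100 nL stock; the first replicate is given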
UCH37 DUB inh = inhibitors of human deubiquitinating enzyme UCH37; purified proteasome/UCH37, Ub-AMC cleavage fluorescence; inhibition, % (test concentration not listed); 330,000 compounds, 0.33% hits; AID 588478;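 active = mean of two replicates above 20%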;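 note: 0% = compound-free wells with enzyme and 100% = wells lacking proteasome; stock transfer was 100 nL into about 20 µL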
Target sequence (Q9Y5K5 whole entry, looked up): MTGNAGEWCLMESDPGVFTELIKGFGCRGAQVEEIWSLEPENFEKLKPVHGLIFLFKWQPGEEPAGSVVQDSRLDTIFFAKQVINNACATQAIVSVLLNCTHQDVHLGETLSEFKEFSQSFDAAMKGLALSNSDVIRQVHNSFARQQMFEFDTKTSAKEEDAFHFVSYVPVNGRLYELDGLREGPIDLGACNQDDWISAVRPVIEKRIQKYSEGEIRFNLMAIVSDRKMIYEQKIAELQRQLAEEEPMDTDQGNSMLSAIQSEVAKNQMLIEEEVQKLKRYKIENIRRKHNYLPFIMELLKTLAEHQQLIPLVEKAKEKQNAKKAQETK
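Test system – human UCH37 enzyme supplied as purified proteasome complex · Incubation – 30 min preincubation with enzyme, 25 min cleavage at room temperature · Detection – AMC fluorescence from Ub-AMC cleavage, excitation 355 nm, emission 460 nm · Benchmarks – no-proteasome wells (full inhibition) and compound-free wells (no inhibition)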
Calb FLC = affects C. albicans growth with fluconazole. C. albicans CaCi-2 (fluconazole-resistant clinical isolate) + fluconazole, Alamar Blue growth, 48 h. growth inhibition, % (test concentration not listed). 300,000 compounds, 0.57% hits;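 active = most replicates above 75%; inconclusive = exactly half above 75%; inactive = most below 75%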;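 note: all wells also contain fluconazole at 8 µg/ml as a sub-toxic cotreatment; 0% = median of DMSO wells and 100% = median of geldanamycin control wells; wells of about 8 µL received 7.5 nL stock; the first replicate is given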
Bfl-1 A1 inh = inhibitors of the anti-apoptotic protein A1, read as caspase activation | 330,000 compounds, 0.066% hits | MEF A1-2A-BIM cells, Caspase-Glo 3/7 luminescence, 3 h; percent of clofoctol response, vehicle zero | caspase activation, % (test concentration not listed) | AID 2462;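 active = over half of replicate activation scores above 10%, or exactly half above 10 with the replicate mean above 10; inconclusive = replicate mean below 10 yet half the replicates above 10; inactive = over half of replicates below 10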;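 note: wells of about 30 µL received 50 nL stock; many hits fall short of the cut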
* = called active by the depositor; ? = inconclusive; nt = no result given.

SMILES | T cruzi repl | Beta2AR agonist | RanGTP-Imp inh | LANA-H2B inh | Beta cell apopt | UCH37 DUB inh | Calb FLC | Bfl-1 A1 inh
O=C1C=C(Nc2ccc(Cl)cc2)CC(c2ccccc2)C1 (stereo unspecified) | -11 | -7 | 11 | -1.5 | 10 | -0.2 | 31 | 0.7
CCCCNC(=O)CSc1nnc(Cc2ccccc2)n1CC1CCCO1 (stereo unspecified) | 2 | -6 | -0.2 | -0.8 | 0 | -0.4 | 4 | 0.3
Cc1[nH]ccc(=O)c1OCc1c(F)cccc1Cl | -15 | 0 | -3.1 | 4.8 | -2 | 4.4 | ? | 0.7
COc1ccc(C2/C(=C(\O)c3ccc4c(c3)CC(C)O4)C(=O)C(=O)N2Cc2cccnc2)c(OC)c1 (stereo unspecified) | -4 | -1 | 1.2 | -3.9 | nt | 13 | 12 | -0.5
CN(C)C(=O)CSc1nnc(Cc2ccccc2)n1CC1CCCO1 (stereo unspecified) | -1 | -9 | -0.8 | -6.2 | 0 | -1.4 | 5 | 0.4
O=C(Nc1ccc(Cl)cc1Cl)c1cccc(N2C(=O)C=CC2=O)c1 | ? | 71* | -3.0 | 1.6 | -1 | 1.0 | -2 | 14*
Cc1ccc(OCc2nc3c4c(ncn3n2)-c2ccccc2CC42CCCC2)cc1 | 2 | -8 | 2.7 | -2.0 | 5 | -5.7 | 16 | -0.3
Cc1c(Cl)cccc1NC(=O)CSc1nccn1C | -8 | -4 | nt | -2.3 | -4 | 1.2 | nt | 0.8
O=C(COC(=O)c1ccc(CNS(=O)(=O)c2ccc(F)c(Cl)c2)cc1)NCC1CCCCC1 | -9 | 2 | 0.5 | -1.9 | -7 | 2.8 | 9 | 1.5
O=C(Nc1ccc(OC(=O)c2ccco2)cc1)c1ccco1 | -16 | 5 | -3.2 | 4.1 | -1 | 0.0 | -2 | -3.7
O=C1C(Cc2ccccc2)Nc2ncnc(N3CCOCC3)c2N1Cc1ccccc1 (stereo unspecified) | nt | -5 | nt | 3.2 | -4 | 1.4 | nt | -0.5
CCc1nnc(NC(=O)CSc2nnc3c(n2)[nH]c2ccccc23)s1 | -22 | 3 | ? | 0.8 | -1 | 3.5 | 10 | 1.6
C=C1/C=C(\C)C(C)(O)CC(O)CC(=O)C(O)C(O)C(C)CC(C)OC(=O)/C(C)=C/CC/C=C/C(OC)C(O)CC(C)C1 (stereo unspecified) | nt | 20 | nt | -4.6 | -10 | 14 | nt | -1.6
COc1ccc(-c2cc(=Nc3c(C)n(C)n(-c4ccccc4)c3=O)c3ccccc3o2)cc1 | -5 | 12 | -1.5 | 5.8 | 3 | -264 | 4 | -7.0
Cc1cc(Br)ccc1SCC(=O)OCC(=O)Nc1ncc(C(F)(F)F)cc1Cl | -7 | 2 | -3.1 | 2.3 | -4 | 2.7 | 0 | 0.2
Cc1sc(NC(=O)c2ccco2)c(C(c2cccnc2)N2CCN(c3ccc(F)cc3)CC2)c1C (stereo unspecified) | 57* | 5 | 3.9 | 3.5 | 29 | -9.9 | 25 | 0.2
CCc1ccccc1NC(=O)c1ccc(-n2c(C)ccc2C)cc1 | 9 | 7 | 3.1 | 0.9 | -23 | -1.5 | 5 | 0.2
Cc1ccc(CSCC(=O)Nc2cc(S(=O)(=O)N3CCOCC3)ccc2OC(C)C)cc1 | 9 | -4 | -0.3 | 1.3 | 6 | 0.2 | 3 | 0.0
COc1c2c(nc3ccccc13)OC(C(C)(O)COC(C)=O)C2 (stereo unspecified) | -13 | -10 | 5.3 | 1.6 | -36 | 0.0 | 0 | 0.1
CCN1CCCC1Cn1cnc2c([nH]c3cccc(Cl)c32)c1=O (stereo unspecified) | 13 | -4 | 0.6 | -4.7 | nt | -30 | -1 | -0.4
COc1ccc(NC(=O)c2cccc(S(=O)(=O)N3CCN(C)CC3)c2)c(OC)c1 | 17 | -10 | 1.6 | -1.6 | 5 | 5.6 | 3 | -0.3
CCC1Sc2ccc(S(=O)(=O)CCC(=O)NCc3ccco3)cc2NC1=O (stereo unspecified) | 9 | 6 | -110 | -1.6 | -3 | 1.1 | -2 | 2.8
CN(C)C(=O)N1CCC(C(=O)NCc2ccc3c(c2)OCO3)CC1 | nt | 4 | -0.9 | 0.2 | 1 | -0.2 | 21 | 0.7
CC(CN1CCN(Cc2ccccc2)CC1)c1ccccc1 (stereo unspecified) | -1 | -1 | -4.1 | 5.7 | 0 | 2.3 | -53 | 1.0
C=CCn1c(NCCO)nc2c1c(=O)n(C)c(=O)n2C | -7 | 0 | 2.8 | -0.9 | nt | 4.2 | -1 | -0.2
CCCCn1c(N)c(N(CC(C)C)C(=O)C2CCN(S(=O)(=O)c3ccc(OCC)cc3)CC2)c(=O)[nH]c1=O | -4 | -1 | 2.3 | 1.8 | -1 | 3.0 | 0 | -0.2
COC(=O)COc1ccccc1C(N)=O | -10 | 2 | ? | -0.9 | -11 | 3.6 | -11 | 0.9
OCCSc1nc(N2CCOCC2)nc(N2CCOCC2)n1 | 7 | -1 | -1.2 | 1.4 | -10 | -1.1 | 4 | 0.4
O=C(NCc1cccc(Cl)c1)C1=CC=CN2CCS(=O)(=O)N=C12 | nt | -2 | nt | 0.1 | -1 | -88 | nt | 2.2
COc1ccc(-c2csc(-c3cccs3)n2)cc1OC | -11 | -3 | -0.2 | -2.9 | -8 | -1.8 | 6 | -2.2
C/C(=N\NC(=O)Cc1csc(N2CCOCC2)n1)c1ccc(Cl)c(Cl)c1 | -11 | 2 | -1.4 | nt | -3 | nt | 1 | 0.2
COc1ccc(F)cc1C(=O)C1CCCN(Cc2cccn2-c2cccnc2)C1 (stereo unspecified) | 43 | -3 | 1.5 | -0.9 | 11 | -4.3 | -7 | -0.3
Cc1ccc(NC(=O)CCN2C(=O)CSC2=O)c(C)c1 | -2 | 6 | 2.7 | -3.1 | -1 | 1.4 | 0 | -0.7
O=C(Cn1c(-c2ccccc2)c[n+]2ccsc12)c1ccc(Br)cc1 | 36 | -3 | -1.4 | -0.9 | 27 | 6.1 | -39 | 0.3
Cc1ccc2c(c1)c1c(n2CC(O)Cn2c(C)nc3ccccc32)C(=O)CCC1 (stereo unspecified) | 7 | -2 | ? | -2.3 | nt | -31 | -1 | -0.5
Nn1c(=S)[nH]nc(Cc2ccc(O)cc2)c1=O | 3 | -5 | -1.9 | -2.2 | 0 | 1.9 | ? | 0.3
CCOC(=O)c1ccc(CNC(=O)Cn2nnc(-c3ccc(C)cc3)n2)o1 | -1 | 2 | 5.1 | -3.0 | -8 | -0.6 | nt | 0.4
Cc1ccc(C(CNC(=O)c2ccc(Br)o2)N2CCN(C)CC2)cc1 (stereo unspecified) | 10 | -18 | -7.2 | 2.6 | -5 | -1.1 | 1 | -0.2
COCCNC(=O)C(=O)N/N=C(\C)CC(=O)Nc1ccc(Cl)cc1Cl | 2 | 5 | -2.4 | -3.4 | 0 | nt | -10 | 1.3
CCc1ccccc1NC(=O)COc1ccc(N2CC(C(N)=O)CC2=O)cc1 (stereo unspecified) | 1 | 4 | -5.8 | 2.7 | -7 | -1.1 | 4 | 0.6
O=C(/C=C/c1ccc(Cl)c(Cl)c1)n1cccn1 | 10 | 2 | -3.9 | -22 | -8 | 1.7 | -3 | -0.6
O=[N+]([O-])c1cc(S(=O)(=O)NCCCN2CCOCC2)ccc1Cl | 6 | 1 | -0.5 | 0.1 | -7 | 4.9 | 3 | -0.7
CCC(CC)NCc1ccc(OC)cc1OC | -7 | 5 | -12 | -4.0 | 3 | 4.7 | -2 | 0.8
COC(=O)CCN(C1CCCCC1)S(=O)(=O)c1ccc(S(=O)(=O)NC2CCCCC2)cc1 | 28 | 1 | 1.6 | -4.9 | 6 | 1.0 | 11 | 0.4
C=CCn1c(O)c(C2=c3ccccc3=NC2=O)c2ccccc21 | ? | -2 | -1.4 | -1.5 | 7 | 5.6 | 1 | 0.6

A different layout for part of the listing above:
mol,T cruzi repl,Beta2AR agonist,RanGTP-Imp inh,LANA-H2B inh,Beta cell apopt,UCH37 DUB inh,Calb FLC,Bfl-1 A1 inh
COCCNC(=O)C(=O)N/N=C(\C)CC(=O)Nc1ccc(Cl)cc1Cl,2,5,-2.4,-3.4,0,nt,-10,1.3
CCc1ccccc1NC(=O)COc1ccc(N2CC(C(N)=O)CC2=O)cc1 (stereo unspecified),1,4,-5.8,2.7,-7,-1.1,4,0.6

Next compounds:
SMILES | T cruzi repl | Beta2AR agonist | RanGTP-Imp inh | LANA-H2B inh | Beta cell apopt | UCH37 DUB inh | Calb FLC | Bfl-1 A1 inh
CCCCn1c(N)c(N(CC(C)C)C(=O)c2cccc(OCc3ccccc3)c2)c(=O)[nH]c1=O | 15 | 4 | 6.5 | -1.3 | 1 | 3.2 | 2 | 0.1
COc1ccc(NC(=S)N2CCC(C(O)(c3ccccc3)c3ccccc3)CC2)cc1 | -19 | 10 | -2.8 | 0.5 | -5 | 3.8 | 17 | 0.4
C=CCNC(=O)c1ccc(C)c(Br)c1 | -6 | 3 | -2.1 | -3.4 | nt | 2.4 | -4 | -1.8
O=C(CNC(=O)c1ccccc1)OCc1ccc([N+](=O)[O-])cc1 | -12 | 8 | 6.8 | 1.4 | -3 | -0.3 | 5 | 0.4
COc1cc(CSC)nc(-c2ccccc2)n1 | 9 | -3 | 2.8 | 1.2 | -13 | 1.8 | -12 | -0.5
Cc1cc(=O)[nH]c2c1c(C)nn2C1CCCCC1 | 1 | 0 | 3.7 | 3.2 | -3 | -1.5 | 1 | 0.2
CCCC(C(=O)NC(C)(C)C)N(Cc1ccccc1Cl)C(=O)c1snc(C(N)=O)c1N (stereo unspecified) | 26 | 12 | -2.7 | -1.2 | 6 | -28 | -6 | -0.3
CCOCCn1c(N2CCN(c3ccc(OC)cc3)CC2)nc2c1c(=O)[nH]c(=O)n2C | 4 | 0 | 6.0 | 3.1 | 9 | 0.6 | 3 | -0.5
COc1cccc(/C(O)=C2\C(=O)C(=O)N(c3ccccn3)C2c2cccc(OC)c2OC)c1 (stereo unspecified) | 3 | 0 | 2.1 | -0.5 | 1 | 15 | 12 | 0.2
COc1ccccc1CNC(=O)C1CCN(S(=O)(=O)N2CCCCC2)CC1 | -11 | 2 | -4.4 | -6.2 | 0 | -0.2 | -7 | 0.8
CCc1c(C(=O)NCc2cnn(C)c2)csc1C | -4 | -4 | -1.3 | -1.7 | -10 | 4.5 | 25 | 0.8
Cc1cccc(C)c1NC(=O)CNC(=O)Cc1c[nH]c2ccccc12 | -7 | 2 | nt | 7.1 | -4 | 3.5 | -4 | 0.8
CCOc1c(O)ccc(C2NC(=O)N(C)C(C)=C2C(=O)OC)c1[N+](=O)[O-] (stereo unspecified) | -3 | -3 | 0.1 | -2.2 | -11 | 5.4 | 0 | -0.2
CC(C)N(Cc1nc(-c2ccc3c(c2)OCO3)no1)Cc1nccn1C | -6 | 7 | -5.3 | 2.1 | 3 | 3.0 | -28 | 0.1
CC12CCC(C/C1=N/NC(=O)COc1ccccc1Cl)C2(C)C (stereo unspecified) | 3 | 0 | -2.3 | 5.0 | nt | nt | -9 | 1.4
Cc1cc(C)n(-c2c(F)c(F)c(CO)c(F)c2F)n1 | -14 | -1 | -3.4 | 0.0 | 0 | 0.7 | -4 | -1.5

Compounds were not picked by outcome (roughly 4.3% active in at least one column).
